Screens: PubChem BioAssay, Fisher Drug Discovery Resource Center
NPYLR7 ag: activates Aedes aegypti NPYLR7 receptor. HEK293T NPYLR7/Galpha15, GCaMP6s calcium fluorescence. activation, % at 10 µM. 270,000 tested, 0.15% active; in the data active = activation above about 40%;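 note: 0% = vehicle and 100% = reference agonist at the receptor; some compounds past the cut are filed as inactive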
NPYLR7 ag max-min: recorded beside NPYLR7 ag, whose call it bears; activation, %; measured here: Max-Min RFU normalised activation; some inactives read as strong as hits;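 span of the calcium signal over five minutes; 0% = vehicle and 100% = native peptide agonist; compound fluorescence can raise it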
Active calls of the source: *. These rows are one share of the data, so the mix of outcomes need not match the whole.

The line under a structure holds: NPYLR7 ag, NPYLR7 ag max-min
O=C(NC1CCCc2ccccc21)C(C1CCCC1)N1CCN(C(=O)c2ccccc2Cl)CC1 (stereo not drawn)
→ -21, -14
Cc1cccc2c(NC(CC(N)=O)C3CCOCC3)ncnc12 (stereo not drawn)
→ 3, -8
CNc1nc2cnc(Nc3cccnc3)cc2n1-c1ccccc1
→ 15, -2
O=C1NC(=S)S/C1=C/c1cn(CCOc2ccc(Br)cc2)c2ccccc12
→ 4, 16
O=C(Cn1nnnc1CN1CCCC1)NCCCc1ccccc1
→ 0, -1
CCCCN(CC(=O)N1c2ccccc2-n2cccc2C1c1cc(OC)ccc1OC)C(=O)Nc1ccc(C)cc1C (stereo not drawn)
→ -7, 2
COCCNC(=O)Cn1c(=O)n(-c2ccc(C)c(C)c2)c(=O)c2ccccc21
→ 31, 18
CCCC(=O)Nc1cc(-c2cn3nc(OC)ccc3n2)ccc1C
→ 8, 1
COc1cc(C=CC(=O)Oc2ccc3c(c2)OCO3)cc2c1OCCO2
→ -3, -6
CCOC(=O)c1c(C)n(C)c2ccc(OC(=O)c3ccccc3Br)cc12
→ -7, -16
CN1C(=O)C(=Cc2ccc(Cl)cc2)SC1=S
→ 3, 9
CC(=O)Nc1ccccc1NC(=O)CN1CCCC1c1nc2c(C)cccc2[nH]1 (stereo not drawn)
→ 3, 1
O=C(CN1CCN(c2ccc([N+](=O)[O-])cc2)CC1)c1ccccc1
→ -3, -5
Cc1ccc2nc(C(C)C)c(NC(C)(C)CC(C)(C)C)n2c1
→ 22, 28
CCOc1ccc(-n2c(=O)c3ccc(Cl)cc3n(CC(=O)N3CCOCC3)c2=O)cc1
→ 1, 0
OCCCc1nncn1-c1ccc(Cl)cc1
→ -1, 8
Cc1ccsc1CN(C)C(=O)c1ccccc1-n1cncn1
→ 20, 14
COc1ccc(CN(C(=O)Cc2ccc(F)cc2)C(C)C)cc1OS(C)(=O)=O
→ -1, 4
Cc1ccc(Nc2cc(Cl)nc(N)n2)cc1C
→ 11, 11
Cn1ccnc1CN1CCCC(CCc2ccc(F)cc2F)C1 (stereo not drawn)
→ 15, 6
CCC(C)CN(CC(=O)N(Cc1ccccc1)Cc1cccs1)C(=O)Nc1c(Cl)cccc1Cl (stereo not drawn)
→ -4, 0
COc1ccc(C(=O)N(CCCN2C(=O)c3cccc4cccc(c34)C2=O)c2ccccc2OC)cc1
→ 4, 12
O=c1[nH]n(-c2ccccc2)c2c(c1=O)CC/C2=C\c1ccccc1
→ 4, 2
CCOc1ccc(NC(=S)N2C(C(=O)O)Cc3[nH]cnc3C2c2ccccc2)cc1 (stereo not drawn)
→ 4, -7
O=C(CN1CCN(S(=O)(=O)c2cccc(C(F)(F)F)c2)CC1)NC1CCCCC1
→ 0, 3
O=C(N/N=c1\oc2ccc(Br)cc2cc1-c1nc2ccccc2[nH]1)c1ccc([N+](=O)[O-])cc1
→ -6, -12
O=C(c1cc(=O)c2ccccc2o1)N1CCN(Cc2nnnn2-c2cccc(F)c2)CC1
→ -1, -1
O=C(Cn1cnc2sc3c(c2c1=O)CCCC3)NC1CCCCC1
→ 8, 6
C=CCOc1cccn2c(N(C)C(=O)Nc3ccccc3OC)c(CC)nc12
→ -9, -16
CCCCCCNC1=NCCS1
→ 2, 2
COc1cccc(OC)c1-c1cnnc(NCC2(N(C)C)CCCCC2)n1
→ 3, -4
COc1cn(CC(=O)NCc2ccc(C)cc2)c(CSc2nc(C)cc(C)n2)cc1=O
→ 0, -7
O=C(CN1C2=NCCN2c2ccccc21)c1ccccc1
→ 4, 1
Cc1ccc(C2CCCN2C(=O)CNC(=O)C2CCCCC2)cc1 (stereo not drawn)
→ 2, 1
COc1ccc(CCN2COc3ccc4c(c3C2)O/C(=C\c2ccncc2)C4=O)cc1OC
→ 55*, 50*
COc1ccc(C(=O)N(Cc2nc3cc(C)ccc3o2)Cc2ccccc2Cl)c(OC)c1
→ -3, 1
CNC(=O)[C@H]1C[C@]2(CCCCN(C)C2=O)N(C(=O)c2cc(C)oc2C)[C@H]1c1ccco1
→ 6, 18
CN1CCCC2(CCN(C(=O)C(=O)N3CCOCC3)C2)C1=O (stereo not drawn)
→ -2, -5
CN(C)C(CNC(=O)c1ccc2ccccc2c1)c1cccs1 (stereo not drawn)
→ 2, 8
COc1cccc2cc(C(N)=O)c(=Nc3ccc(C)cc3)oc12
→ 0, -8
O=C(c1ccc(N2CCCCC2=O)cc1)N1CCN(S(=O)(=O)c2cccc(Cl)c2)CC1
→ 5, 5
CCCc1c(C(=O)NCC2CCCO2)nnn1-c1ccccc1 (stereo not drawn)
→ 1, 3
O=C(c1ccc(Br)cc1)N1CCN(C(=O)c2ccc(Br)cc2)CC1
→ 2, 5
O=C(Nc1ccc(C(=O)N2CCC3(CC2)OCCO3)s1)c1ccco1
→ -5, -6
COc1ccccc1CNC(=O)CN1CCCC(c2nc(C(C)C)no2)C1 (stereo not drawn)
→ 3, 0
C=Cc1cccc(CN2CCC(CNS(=O)(=O)N3CCCC3)C2)c1 (stereo not drawn)
→ -1, -5
CCCNC(=O)Cn1nc2c(c1NC(=O)C1(c3ccc(Cl)cc3)CCCC1)CSC2
→ -11, -16
Cc1nn(C)c(Cl)c1C(=O)N1CC(n2cccn2)C1
→ -8, -9
COc1c2ccoc2cc2oc(=O)ccc12
→ -10, -20
O=C(O)c1ccc(CSc2nnnn2-c2cccc3ccccc23)cc1
→ 0, -3
CNC(C)(C)C(=O)NCC1CCN(C2CC(C)(C)NC(C)(C)C2)C1 (stereo not drawn)
→ -1, -4
COc1ccccc1CNc1ccc(S(=O)(=O)Cc2ccc(Cl)cc2)nn1
→ -1, -6
O=C(NCC1CCCN(c2nccn3cnnc23)C1)C1CC(=O)N(C2CCCCCC2)C1 (stereo not drawn)
→ 5, 3
CCOc1ccccc1N1CCN(S(=O)(=O)c2ccc3oc(=O)ccc3c2)CC1
→ 1, 3
CNC(=O)CSCc1noc(-c2ccccc2Cl)n1
→ 7, 2
CC(C)(C)OC(=O)N1CCCC1C(=O)NCCCc1cc(N)n(-c2ccccc2)n1 (stereo not drawn)
→ 0, 4
COc1ccc(NC(=O)CCC2CCCN(Cc3ccc(CO)o3)C2)cc1Cl (stereo not drawn)
→ 3, 3
COc1ccccc1-n1ncc2c(C)nnc(SCC(=O)N3CCc4ccccc43)c21
→ -12, -16
Cc1cc(O)c(CN2CCN(CCO)CC2)c2c1C(=O)/C(=C/c1cccs1)O2
→ 28, 27
CCOC(=O)C(CC)Sc1ccc2nnc(CCNC(=O)c3ccc(C)cc3)n2n1 (stereo not drawn)
→ 1, -8

(next part)
The line under a structure holds: NPYLR7 ag, NPYLR7 ag max-min
Cc1cccc(COC(CN2CCN(S(=O)(=O)c3c(C)noc3C)CC2)c2ccc(Cl)cc2)c1 (stereo not drawn)
→ -3, 1
O=C1C2C3CCC(O3)C2C(=O)N1n1cnnc1 (stereo not drawn)
→ 3, 1
Oc1ccc(C=Cc2ccncc2)cc1
→ 5, 6
Cc1cccc(-n2ccnc2-c2cccnc2)c1
→ 8, 1
O=[N+]([O-])c1cnc(Nc2ccc(O)cc2)c([N+](=O)[O-])c1
→ -2, -2
CCCCCc1ccc(C(=O)Nc2ccc3[nH]cc(CCN(C)C4CCCCC4)c3c2)cc1
→ 2, 10
COc1ccccc1N1CCN(Cc2cccc3nccnc23)C(C)C1 (stereo not drawn)
→ 1, -1
CCOC(=O)N1CC(=O)N(CCCc2ccccc2)CC(O)C1 (stereo not drawn)
→ 21, 18
CC(C)Sc1ccc(CC(=O)NCC2CCN(C(C)C)CC2)cc1
→ 2, 0
CCOCCS(=O)(=O)Cc1cc(C)cc(C)c1
→ -5, 18
COCCn1c(C(=O)Nc2ccccc2)cc2c(=O)n(C)c(=O)n(C)c21
→ -3, -3
COc1ccc2[nH]c3c(c2c1)CCN(C(=O)COc1ccc(Cl)cc1)C3c1ccc(OCCCN(C)C)cc1 (stereo not drawn)
→ 2, -6
Cn1c(=O)cc(C(=O)N2CCCC(O)(CO)CC2)c2ccccc21 (stereo not drawn)
→ -4, -3
Cc1ccc(C(=O)NCCc2nnc3ccc(SCc4ccc([N+](=O)[O-])cc4)nn23)cc1
→ 9, 0
CCCN(CCC)S(=O)(=O)c1ccc(C(=O)Nc2nc3ccc(S(N)(=O)=O)cc3s2)cc1
→ 1, -1
CN(Cc1ccccc1)c1cc(C(C)(C)C)nc(SCc2cccc(C(=O)NC3CC3)c2)n1
→ 3, 2
CCOC(=O)c1cn[nH]c1S(=O)(=O)Nc1ccc(C)cc1Cl
→ -1, -1
COc1ccc2[nH]c3c(c2c1)CCN(C(=O)c1cccnc1Oc1ccc(Cl)cc1)C3c1ccc(COC(C)=O)o1 (stereo not drawn)
→ 19, 7
CCOC(=O)C(=N\O)/C(C)=N\NC(C)=O
→ -5, 0
CCCCCn1c(=O)c2c(nc3n2CC(C)CN3c2ccc(Br)cc2)n(C)c1=O (stereo not drawn)
→ 8, 5
CCCCSc1nc2c(c(=O)[nH]1)C(c1ccccc1)C(C(=O)OCC)C(C)=N2 (stereo not drawn)
→ 7, 6
N#Cc1ccc(C(=O)N(CCCN2CCOCC2)c2nc3c(F)cccc3s2)cc1
→ -2, -11
Cn1nc(-c2ccccn2)c2c1NC(=O)CC2c1cc2ccc(F)cc2[nH]c1=O (stereo not drawn)
→ 0, 0
COCc1cc(C(=O)N2CCC3(CCN(C)CC3)C2)ccc1OC
→ 7, 6
CC(C)NC(=O)N(Cc1csc(COc2ccccc2C(C)C)n1)C(C)C
→ -1, 12
CCOC(=O)C1=C(C)NC(C)=C(C(=O)OCC)C1c1ccc(N(C)C)cc1
→ 4, 2
Cc1ccc2sc(N(Cc3cccnc3)C(=O)c3ccccc3[N+](=O)[O-])nc2c1C
→ -15, -11
CC(C)c1nc(CNC(=O)c2cc(CN3CCC(O)CC3)on2)cs1
→ 8, 3
CCc1noc(Cn2cc(C#N)c(=O)c3c(OC)cc(OC)cc32)n1
→ 3, 2
C#CCn1c(C2CC(=O)N(c3ccc(C)c(C)c3)C2)nc2ccccc21 (stereo not drawn)
→ 7, 7
COc1ccc(N2C(=O)CSC2c2ccc(NC(=O)c3ccc(Cl)cc3Cl)cc2)c(OC)c1 (stereo not drawn)
→ 20, 26
CC(C)(C)c1ccc(CSc2nncc(=O)n2N)cc1
→ -3, -4
CCC(NC(=O)c1ccc(Cl)cc1)C1c2cc(OC)c(OC)cc2CCN1Cc1ccc(F)cc1 (stereo not drawn)
→ 10, 2
CC(C)c1ccc(C(=O)Nc2sccc2C(=O)N2CCCC2)cc1
→ 19, 17
CCOCCOc1nc(-c2ccc(C(F)(F)F)cc2)n(-c2ccc(NC(=O)/C=C/c3ccc([N+](=O)[O-])cc3)cc2)n1
→ 28, 23
Cc1cc(C)nc(SC2=CS(=O)(=O)c3ccccc32)n1
→ 19, 10
COC(=O)C1=C(C)NC2=C(C(=O)CCC2)C1c1coc2ccccc2c1=O (stereo not drawn)
→ -2, 1
CCCOC1CCCN(S(=O)(=O)c2ccc(C)cc2)C1 (stereo not drawn)
→ -2, 4
CCn1c(SCC(=O)Nc2cc(C)cc(C)c2)nc2c(c1=O)SC(C)C2 (stereo not drawn)
→ 1, -2
Cc1c(C(=O)Nc2nccs2)nnn1-c1ccc2noc(-c3ccc(Cl)cc3)c2c1
→ 4, 4
COc1ccc(-c2c(Cc3ccccc3)[nH]n3c(=O)c(Cl)c(C)nc23)cc1
→ -19, -24
Cc1ccc(C(=O)NCc2ccccc2S(=O)(=O)N(C)C)cc1C
→ -8, -6
C=CCCC(=O)N1[C@@H](c2ccccc2)[C@@H](C(=O)O)C[C@]12CCCCN(C)C2=O
→ 6, 19
COc1cccc(-c2cc(C(=O)NCc3ccncc3)n(-c3ccc([N+](=O)[O-])cc3)n2)c1
→ -8, -6
Cc1ccccc1NC(=O)c1cccn(OCc2cccc(Cl)c2)c1=O
→ 2, 20

Some of the entries above, set out differently.
COc1ccc(N2C(=O)CSC2c2ccc(NC(=O)c3ccc(Cl)cc3Cl)cc2)c(OC)c1 (stereo not drawn)
  NPYLR7 ag = 20 | NPYLR7 ag max-min = 26
Cc1c(C(=O)Nc2nccs2)nnn1-c1ccc2noc(-c3ccc(Cl)cc3)c2c1
  NPYLR7 ag = 4 | NPYLR7 ag max-min = 4
Cc1ccccc1NC(=O)c1cccn(OCc2cccc(Cl)c2)c1=O
  NPYLR7 ag = 2 | NPYLR7 ag max-min = 20

Further compounds:
The line under a structure holds: NPYLR7 ag, NPYLR7 ag max-min
CC(c1nc2scc(-c3ccccc3)c2c(=O)[nH]1)N1CCCCCC1 (stereo not drawn)
→ -17, -23
O=C(O)C1Nc2c(O)cccc2C2C=CCC12 (stereo not drawn)
→ 2, 2
CCC(C1=NN2C(=N)/C(=C\c3ccc4c(c3)OCO4)C(=O)N=C2S1)c1ccccc1 (stereo not drawn)
→ 0, -1
O=C(NCc1nc(-c2ccccc2)n[nH]1)c1ccc2nc(C3CCCCC3)oc2c1
→ 15, 0
COc1cccc(OC)c1OCCOc1cc(C)ccc1Cl
→ 4, 0
CCN1CCC(NC(=O)C(NS(=O)(=O)c2ccc(Cl)cc2)C(C)C)CC1 (stereo not drawn)
→ 10, 8
C=CCN1C(=O)C(C(C)CC)NC1=S (stereo not drawn)
→ -1, 2
Cc1csc2nc(CSc3ncnc4sccc34)cc(=O)n12
→ 7, 6
O=C(Nc1ccc2c(c1)OCO2)N1CCC(c2nc3ccccc3[nH]2)CC1
→ 1, 0
CCCCc1ccc(S(=O)(=O)c2cnc(SCC(=O)NCCc3ccccc3)[nH]c2=O)cc1
→ 0, -6
Cc1ccccc1CN1CCN(C(=O)C2CCC(=O)N(C3CC3)C2)CC1 (stereo not drawn)
→ 5, 2

Four entries from above in another layout.
Cc1ccccc1CN1CCN(C(=O)C2CCC(=O)N(C3CC3)C2)CC1 (stereo not drawn)
  NPYLR7 ag: 5; NPYLR7 ag max-min: 2
CC(c1nc2scc(-c3ccccc3)c2c(=O)[nH]1)N1CCCCCC1 (stereo not drawn)
  NPYLR7 ag: -17; NPYLR7 ag max-min: -23
CCN1CCC(NC(=O)C(NS(=O)(=O)c2ccc(Cl)cc2)C(C)C)CC1 (stereo not drawn)
  NPYLR7 ag: 10; NPYLR7 ag max-min: 8
Cc1csc2nc(CSc3ncnc4sccc34)cc(=O)n12
  NPYLR7 ag: 7; NPYLR7 ag max-min: 6
